Screening results as filed in PubChem BioAssay.
Beta2AR agonist – human beta-2 adrenergic receptor agonism by FAP | AID 504454 | 0.43% of 340,000 active | response, % (test concentration not listed) | P07550 | Am2.2-beta2AR cells, FAP receptor internalization, flow cytometry; reference of the scale not given here;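 active = response above a set limit, near 3 SD of response in nonfluorescent compounds, cut at about 42% in these data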;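 note: stock transfer was 100 nL into about 11 µL; a reference agonist was the positive control; negative values mostly stem from fluorescent compounds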
Target sequence (P07550 whole entry, looked up): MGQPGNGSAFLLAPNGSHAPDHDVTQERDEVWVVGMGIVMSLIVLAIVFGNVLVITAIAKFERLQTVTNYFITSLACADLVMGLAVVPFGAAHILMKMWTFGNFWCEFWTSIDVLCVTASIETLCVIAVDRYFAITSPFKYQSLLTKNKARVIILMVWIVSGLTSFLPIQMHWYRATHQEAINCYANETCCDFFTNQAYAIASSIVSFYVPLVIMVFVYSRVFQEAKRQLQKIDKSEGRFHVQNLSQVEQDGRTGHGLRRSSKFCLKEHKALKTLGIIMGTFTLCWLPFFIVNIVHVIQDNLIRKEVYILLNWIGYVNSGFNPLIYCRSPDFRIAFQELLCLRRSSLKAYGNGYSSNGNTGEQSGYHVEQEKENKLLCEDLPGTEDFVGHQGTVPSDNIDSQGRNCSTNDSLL
rRNA inh HTS – inhibits bacterial ribosomal RNA function over humanized ribosomes; 1.6% of 350,000 active; GFP signal change (wild-type ribosome), % (test concentration not listed); AID 720706; E. coli WT GFP vs humanized-ribosome RFP mutants, fluorescence, 24 h; active compounds read low; DMSO median 0, no signal -100;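 active = significant combined selectivity score with lowered wild-type GFP, culture density cut under 30%, mutant RFP and density less affected; inactive = any of these conditions unmet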; note: one replicate is shown; some compounds called inactive have numbers as strong as hits
rRNA inh HTS OD600 – further read-out of rRNA inh HTS, marked with its call; OD600 change, %; measured here: OD600 growth;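 optical density of the mix in the first replicate; 0 = DMSO median and -100 = no signal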
rRNA inh HTS RFP – further read-out of rRNA inh HTS, marked with its call; RFP signal change, %; measured here: RFP humanized mutant strains;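 first replicate; 0 = DMSO median and -100 = no signal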
Numbers without * were called inactive. An excerpt. The share of hits here may be higher or lower than overall.

Below each compound: Beta2AR agonist	rRNA inh HTS	rRNA inh HTS RFP	rRNA inh HTS OD600
COc1ccc2c(c1OC)OCC2C (stereo unspecified)
 : -4	-16	-4.9	-28
CC(=O)c1ccc(NC(=O)CSc2nc3[nH]c(=O)cc(O)c3s2)cc1
 : -5	-4	-0.6	-7
COc1ccc(OC)c(CCNC(=O)CC2Oc3ccc(C)cc3NC2=O)c1 (stereo unspecified)
 : -4	3	-0.8	-1
Cc1ccccc1N=C1Nc2ccccc2N[C@]12C[C@H]1CCC(=O)N3CC[C@@H](C2)[C@@H]13
 : 9	16	-0.9	16
COc1ccc(OC)c(S(=O)(=O)NCC(=O)NC2CCCc3ccccc32)c1 (stereo unspecified)
 : 0	2	-0.7	4
Cc1ccc(C(=O)CCC(=O)OCC(=O)N2CCN(S(=O)(=O)c3ccc(C)cc3C)CC2)cc1
 : -8	1	3.3	-6
O=[N+]([O-])c1cccc(COc2cccc(CO)c2)c1
 : -1	-1	-1.6	10
CC(C)CN(C(=O)COC(=O)CSc1ccc(Br)cc1)C1CCS(=O)(=O)C1 (stereo unspecified)
 : 1	12	0.3	0
CC(=O)N1CCc2ccc([N+](=O)[O-])cc21
 : -11	2	3.2	-3
COc1ccc(Cl)cc1NC(=O)CN(C)CC(=O)Nc1ccc2c(c1)OCO2
 : 5	0	-0.2	-7
COc1ccc(NS(=O)(=O)c2cccc(C(=O)NNC(=O)CNC(=O)c3ccccc3Cl)c2)cc1
 : -6	4	1.7	12
CC1CCC(NC(=O)COC(=O)c2cccnc2Cl)CC1 (stereo unspecified)
 : -10	5	-0.6	10
CC[C@]12c3[nH]c4ccc(Cl)cc4c3CCN1C(=O)[C@@H](CC(=O)NCc1ccc(OC)c(OC)c1)C[C@@H]2C(=O)N1CCN(C(=O)C2CC2)CC1
 : -5	3	4.8	4
Cc1ccc(-n2ncc3c(=O)[nH]c(SCC(=O)N4CCC(C)CC4)nc32)cc1C
 : -1	4	-0.3	3
CC(=O)c1cc(C)c(OCc2cn(CC(=O)c3ccc(O)cc3)nn2)c(C)c1
 : -1	2	-4.4	-18
Oc1cc(O)c(CN2CCOCC2)cc1CN1CCOCC1
 : -3	-5	15	9
CC(C)C[C@H]1CNC(=O)C(=O)N1CC1CCN(CCC(C)(C)C)CC1
 : -8	13	0.7	5
CN(C)CCCN=c1cc(-c2ccccc2)oc2ccc(Cl)cc12
 : 9	-50	-14	-78
Cc1cc(C)n2c(SCC(O)=C(C#N)c3nc4ccccc4[nH]3)nnc2n1
 : 3	7	1.1	18
Cc1sc2ncnc(N3CCC(C(=O)Nc4cc(C(F)(F)F)ccc4OCC(F)(F)F)CC3)c2c1C
 : 14	6	-0.2	-10
Cn1nc(C(=O)Nc2cccc(S(=O)(=O)N3CCCCC3)c2)c2ccccc2c1=O
 : 6	-17*	4.1*	-7.8*
COc1cccc(N2CCN(CC(=O)Nc3ccccc3C(=O)NCc3ccccc3)CC2)c1
 : 17	-9	5.4	-12
COc1ccc(OC)c(NC(=O)COC(=O)Cn2nnc(-c3ccccc3)n2)c1
 : -1	5	-2.5	-1
Cc1cc2c(cc1C)NC(C)CC(=O)N2 (stereo unspecified)
 : -13	5	-1.7	15
Nc1ccc(CSc2ccccc2)cc1
 : -7	-8	2.0	-13
CCCCCC(=O)Nc1cc(S(=O)(=O)N2CCCCC2)ccc1N1CCCCC1
 : -5	4	0.5	9
CCCCn1cnc2c(SCc3ccccn3)nc(N)nc21
 : -5	-11	-0.6	-8
C[C@H](CO)N1C[C@H](C)[C@@H](CN(C)C(=O)NC2CCCCC2)Oc2c(NC(=O)CCC(F)(F)F)cccc2C1=O
 : 0	3	4.1	2
CCOC(=O)C1=CN(CC)S(=O)(=O)NC1c1ccc(F)c(Cl)c1 (stereo unspecified)
 : 0	-1	2.5	-7
COc1ccc(S(=O)(=O)N2CCc3ccccc32)cc1C(=O)Nc1cc(S(C)(=O)=O)ccc1Cl
 : 14	2	2.3	9
CCN(C[C@H]1N[C@@](C)(C(=O)OC)[C@H]2C(=O)N(C)C(=O)[C@@H]12)C(=O)c1ccc(F)cc1
 : -8	7	-4.6	2
COCC(=O)N(C)[C@H]1C[C@H]2c3cc(N4CCN(C)CC4)ccc3CCN2C(=O)[C@H]1[C@H](C)O
 : -16	5	-3.8	13
CCCCNc1ncnc2[nH]ncc12
 : 5	-4	-0.5	-2
CCOC(=O)c1ccc(N2Cc3ccccc3C2=NC(=O)c2ccncc2)cc1
 : -12	2	4.2	14
COc1cc(Cl)c(C)cc1NC(=O)CCN1C(=O)NC(C)(C)C1=O
 : -1	0	-1.1	5
CCN(CC(=O)Nc1cc(Cl)ccc1C)C(=O)CSCc1ccccc1
 : 1	-10	-1.9	-8
Cc1ccccc1-c1csc(N)n1
 : 1	-4	-4.3	-7
O=C(c1ccccc1Cl)N1CCN(C(=O)C2CCCO2)CC1 (stereo unspecified)
 : -6	8	-2.6	-2
CC1CC(C)CN(S(=O)(=O)c2ccc(NC(=O)CN3CCCCCC3)cc2)C1 (stereo unspecified)
 : 1	-5	2.6	-16
Fc1ccc2nncc(SCc3ccccc3Cl)c2c1
 : -8	-63	-12	-76
CC(C)C[C@@H](CN1CCCC1CN1C(=S)NC[C@@H]1Cc1ccc(O)cc1)N1C[C@H](Cc2ccc(O)cc2)N(CC2CCCCCC2)C1=S (stereo partly specified)
 : 11	15	12	21
NC(=S)NN=C1CCCCCCCCC1
 : -5	4	-1.4	7
COC(=O)c1ccc2c(c1)c(C#Cc1ccccc1)c(-c1ccccc1)n2C
 : 11	1	-2.5	4
CCn1c(=O)c(C(=O)CN(C)CC(=O)Nc2ccccc2Br)c(N)n(Cc2ccccc2)c1=O
 : 10	-19	-1.7	-21
COCCN(C(=O)COC(=O)/C=C/c1ccc(Cl)c(Cl)c1)c1c(N)n(Cc2ccccc2)c(=O)[nH]c1=O
 : 11	2	1.1	10
COc1ccc(C2/C=C\CC(OCc3ccccc3)CC(=O)N2Cc2cccc(F)c2)cc1 (stereo unspecified)
 : 5	-8	9.4	-3
CCCCNS(=O)(=O)CCNCCc1ccccc1
 : 1	20	5.7	4
Cc1ccccc1C(=O)N1CCC(C(=O)Nc2ccc(S(=O)(=O)N3C(C)CCCC3C)cc2)CC1 (stereo unspecified)
 : -1	-4	2.8	-6
CCN(CC)C(=O)[C@H]1C[C@H](CC(=O)NCc2ccc(OC)c(OC)c2)C(=O)N2CCc3c([nH]c4cc(-c5ccco5)ccc34)[C@]12C
 : -1	6	13	-2
O=C1CCCC2=C1CC(C(=O)OCc1ccccc1)C(=O)N2Cc1ccccc1 (stereo unspecified)
 : -7	0	-1.9	-8
CCOC(=O)c1[nH]c(=S)[nH]c1C
 : -8	21	0.4	27
CC(=O)N1Cc2ccccc2CC1C(=O)OCC(=O)c1c(N)n(C)c(=O)n(C)c1=O (stereo unspecified)
 : -2	2	2.5	7
O=[N+]([O-])c1ccc(NN=Cc2ccccc2O)nc1
 : 7	-30	4.5	-39
O=C(Cc1cccc(NC(=O)C2CCN(C(=O)C3CC3)CC2)c1)Nc1cccc(C(=O)N2CCCCC2)c1
 : -3	-6	-1.8	-6
CC(C)C[C@@H](CNCC(=O)[C@H](CC(=O)O)NC(=O)c1[nH]cnc1C(=O)N[C@H](CN)CC(C)C)NC(=O)c1nc[nH]c1C(=O)N[C@@H](C)C(=O)O
 : -3	23	1.8	16
COc1cc(C2C3=C(COC3=O)Oc3cc4c(cc32)OCO4)cc(OC)c1OC (stereo unspecified)
 : 17	13	0.6	12
CC1COCC(C)N1C1=C(Cl)C(=O)c2ccccc2C1=O (stereo unspecified)
 : 81*	-2	10	-1
O=C1CN(C(=O)COC(=O)c2ccc(Cl)cc2)c2ccccc2N1
 : -7	7	2.9	11
c1ccc(CN2CCc3[nH]c4ccccc4c3C2)cc1
 : 1	26	5.8	19
C=C1[C@H](C)CN[C@H]1CCO
 : 0	21	-1.5	8

Arranged by formula weight (lowest first): some entries from above
Below each compound: Beta2AR agonist	rRNA inh HTS	rRNA inh HTS RFP	rRNA inh HTS OD600
C=C1[C@H](C)CN[C@H]1CCO
 : 0	21	-1.5	8
CCCCNc1ncnc2[nH]ncc12
 : 5	-4	-0.5	-2
Fc1ccc2nncc(SCc3ccccc3Cl)c2c1
 : -8	-63	-12	-76
CC1COCC(C)N1C1=C(Cl)C(=O)c2ccccc2C1=O (stereo unspecified)
 : 81*	-2	10	-1
O=C(c1ccccc1Cl)N1CCN(C(=O)C2CCCO2)CC1 (stereo unspecified)
 : -6	8	-2.6	-2
CCOC(=O)c1ccc(N2Cc3ccccc3C2=NC(=O)c2ccncc2)cc1
 : -12	2	4.2	14
O=C1CCCC2=C1CC(C(=O)OCc1ccccc1)C(=O)N2Cc1ccccc1 (stereo unspecified)
 : -7	0	-1.9	-8
CCN(C[C@H]1N[C@@](C)(C(=O)OC)[C@H]2C(=O)N(C)C(=O)[C@@H]12)C(=O)c1ccc(F)cc1
 : -8	7	-4.6	2
CC1CC(C)CN(S(=O)(=O)c2ccc(NC(=O)CN3CCCCCC3)cc2)C1 (stereo unspecified)
 : 1	-5	2.6	-16
CC(=O)N1Cc2ccccc2CC1C(=O)OCC(=O)c1c(N)n(C)c(=O)n(C)c1=O (stereo unspecified)
 : -2	2	2.5	7
COCCN(C(=O)COC(=O)/C=C/c1ccc(Cl)c(Cl)c1)c1c(N)n(Cc2ccccc2)c(=O)[nH]c1=O
 : 11	2	1.1	10
CCN(CC)C(=O)[C@H]1C[C@H](CC(=O)NCc2ccc(OC)c(OC)c2)C(=O)N2CCc3c([nH]c4cc(-c5ccco5)ccc34)[C@]12C
 : -1	6	13	-2
CC(C)C[C@@H](CNCC(=O)[C@H](CC(=O)O)NC(=O)c1[nH]cnc1C(=O)N[C@H](CN)CC(C)C)NC(=O)c1nc[nH]c1C(=O)N[C@@H](C)C(=O)O
 : -3	23	1.8	16
CC(C)C[C@@H](CN1CCCC1CN1C(=S)NC[C@@H]1Cc1ccc(O)cc1)N1C[C@H](Cc2ccc(O)cc2)N(CC2CCCCCC2)C1=S (stereo partly specified)
 : 11	15	12	21

(further entries)
Below each compound: Beta2AR agonist	rRNA inh HTS	rRNA inh HTS RFP	rRNA inh HTS OD600
O=C(Cn1cnc2c(NCc3ccccc3)ncnc21)NCc1ccccn1
 : -1	1	4.0	10
Nc1c(Cl)ncnc1Nc1ccc(C(=O)O)cc1
 : -1	6	1.3	-7
O=c1[nH]c2cc(Cl)c(Cl)cc2o1
 : -11	-22	-5.7	-38
Cc1ccc(NC(=O)c2ncn(CC(=O)NCc3ccccc3)n2)cc1C
 : 11	6	-0.7	6
O=C(Nc1ccccn1)C1CCN(S(=O)(=O)c2ccc3ccccc3c2)CC1
 : 7	-17	-2.3	-24
Nc1nc2ccc(Cl)cc2[nH]1
 : -8	3	1.7	-1
O=[N+]([O-])c1cccc(Cn2cnc3c(=S)nc[nH]c32)c1
 : -1	6	-0.2	7
Cc1ccc(S(=O)(=O)N2CCN(C(=O)COC(=O)COc3ccc(Cl)c(C)c3)CC2)c(C)c1
 : -9	18	2.2	14
Cc1cc(C)n2nc(SC(C)C(=O)N3CCCC3)nc2n1 (stereo unspecified)
 : 3	-1	-1.7	1
CCOC(=O)C1=CN(Cc2cccc(F)c2)S(=O)(=O)N(CC)C1c1ccc(Br)cc1F (stereo unspecified)
 : 17	3	-0.3	4
C/C(=N\Nc1ccccc1)c1cccs1
 : -2	6	2.6	12
CC(OC(=O)c1ccccc1C(=O)O)c1ccccc1 (stereo unspecified)
 : -4	0	-1.7	10
CC(=O)c1cccc(NC(=O)C(C)OC(=O)c2cc(C)oc2C)c1 (stereo unspecified)
 : -6	0	0.6	-1
COc1ccccc1N(CC(=O)Nc1ccc(Br)cc1F)S(=O)(=O)c1cccs1
 : 6	2	0.1	1
O=C(C=Cc1cccc(O)c1)c1ccccc1O
 : 56*	-35	-5.5	-30
CC[C@]12c3[nH]c4ccc(OC)cc4c3CCN1C(=O)C(CC(=O)NCCCN(C)C)C[C@@H]2C(=O)N1CCN(C(=O)C2CC2)CC1 (stereo partly specified)
 : -1	3	-5.6	13
CC(=O)c1ccc(N2CCN(C(=O)c3ccc(C(=O)c4ccccc4)cc3)CC2)cc1
 : 7	-1	-1.9	2
O=C1NC(=S)NC1=Cc1ccco1
 : 1	5	7.8	8
CCN(CCc1ccccc1)c1ccc2c(c1)C1CC2CCN1C(=O)OCc1ccccc1 (stereo unspecified)
 : 0	42	1.6	21
CCCCN(C(=O)c1ccc(-n2nc(C)cc2C)cc1)c1c(N)n(CCC)c(=O)[nH]c1=O
 : -4	-1	-1.0	-1
OC1COCOC1C(O)C1OCOCC1O (stereo unspecified)
 : -4	13	-0.3	17
CC(Sc1nnc(NC2CC2)s1)C(=O)Nc1ccc(N2CCOCC2)cc1 (stereo unspecified)
 : 3	-1	-1.9	-1
COc1ccc(CCC(=O)NNC(=O)c2ccccn2)cc1OC
 : 2	4	-4.2	5
O=C1OC(c2ccccc2)(c2ccc(O)cc2)c2ccccc21 (stereo unspecified)
 : 43*	-62	-17	-79
O=C(Cc1cccc(NC(=O)C2CCCN(C(=O)c3ccccc3)C2)c1)Nc1ccc(C(=O)N2CCCCC2)cc1 (stereo unspecified)
 : 5	-1	0.1	-5
Cc1ccc(S(=O)(=O)NN=Cc2cc(Cl)ccc2O)cc1
 : 2	-35	-5.9	-49
CON(C)C(=O)CCN(C(=O)OC(C)(C)C)c1ccccc1
 : 0	6	-5.2	3
O=C(N/C(=C\c1ccc(-c2ccccc2)o1)C(=O)N1CCOCC1)c1ccccc1
 : -2	-1	4.0	0
